Source: PubChem BioAssay
YopH PTP inh = YopH (Yersinia) phosphatase inhibition; fluorescence Ex485/Em525; inhibition, %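 (about 10 µM by stock and volumes)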; 140,000 tested, 0.16% active; AID 898;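 active = inhibition of 50% or more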;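 also: controls were vehicle for no effect and minimum signal wells for full effect; inactives centre near -20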
Arbovirus anti = arbovirus infection inhibition | arbovirus infection cell-based antiviral screen | inhibition, % at 10 µM | 200,000 tested, 0.37% active | AID 1251;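 active = inhibition from about 30%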;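 also: bluetongue infection of BSR cells; cell survival read as ATP light after 72 h; 0% = infected wells without compound and 100% = uninfected wells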
Mtb growth = M. tuberculosis H37Rv growth inhibitors, H37Rv strain (AID 1626). M. tuberculosis H37Rv growth inhibition; higher % means a stronger effect. inhibition, % at 10 µM; hits with a dose series show IC50 in µM. 220,000 tested, 0.95% active;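 active = confirmed in a dose series; inconclusive = inhibition above 80% but not taken into the dose series; inactive = below 80% or under 30% at every dose of the series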;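 also: bacteria incubated seven days before Alamar blue readout; 0% = bacteria only wells and 100% = bacteria with antibiotic wells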
Mtb betalactam = beta-lactam sensitization of Mtb H37Rv; M. tuberculosis H37Rv growth with meropenem, percent inhibition; hits of this screen are not shown here; inhibition, % at 25 µM; 330,000 tested, 0.27% active; AID 434955;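 active = about 74% or more and at least 40 points above the plate without the antibiotic, then above 30% in a dose series; inconclusive = first-round hits that could not be retested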;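 also: growth measured after seven days incubation then overnight dye step; 0% = bacteria only wells and 100% = bacteria with antibiotic; twin plates without the antibiotic show which effects depend on it; some results filed as inactive read as strong as hits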
RecA splice inh = inhibitors of M. tuberculosis RecA intein splicing; 290,000 tested, 0.75% active; P9WHJ3; cell-free RecA intein splicing, fluorescence; inhibition, %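 (about 9 µM by stock and volumes)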; AID 2221; in the data active = inhibition above about 30%; inconclusive = no clear call, values can overlap the other calls;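 also: 0% = vehicle wells and 100% = reference inhibitor control wells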
Target sequence (P9WHJ3 whole entry, looked up, canonical isoform): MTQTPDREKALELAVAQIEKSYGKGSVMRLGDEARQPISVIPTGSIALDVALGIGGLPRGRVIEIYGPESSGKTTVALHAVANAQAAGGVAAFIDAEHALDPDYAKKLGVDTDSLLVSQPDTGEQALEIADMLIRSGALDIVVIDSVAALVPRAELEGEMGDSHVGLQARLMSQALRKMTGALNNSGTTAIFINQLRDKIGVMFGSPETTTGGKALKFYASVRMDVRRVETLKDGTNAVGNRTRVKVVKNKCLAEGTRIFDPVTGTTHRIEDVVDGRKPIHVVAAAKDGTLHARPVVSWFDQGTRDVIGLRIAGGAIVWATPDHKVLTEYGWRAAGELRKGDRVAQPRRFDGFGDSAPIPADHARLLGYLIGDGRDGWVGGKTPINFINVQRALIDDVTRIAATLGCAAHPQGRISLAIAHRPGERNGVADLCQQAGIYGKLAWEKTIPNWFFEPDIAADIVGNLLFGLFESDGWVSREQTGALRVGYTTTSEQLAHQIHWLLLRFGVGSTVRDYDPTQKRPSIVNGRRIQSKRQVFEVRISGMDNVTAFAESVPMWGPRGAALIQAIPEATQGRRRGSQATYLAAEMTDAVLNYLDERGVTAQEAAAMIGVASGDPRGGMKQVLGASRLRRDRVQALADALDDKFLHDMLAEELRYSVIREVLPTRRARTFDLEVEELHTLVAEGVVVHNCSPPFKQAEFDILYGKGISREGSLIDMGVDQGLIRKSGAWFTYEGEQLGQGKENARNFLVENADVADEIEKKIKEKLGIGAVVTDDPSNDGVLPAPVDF
Arbovirus anti repeat = also measured in Arbovirus anti; calls as there; inhibition, %; measured here: 10K subset replicate screen; many hits read low in the repeat;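 first of two repeat runs on a subset; 0% = infected and 100% = uninfected wells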
* marks the source's active call; other numbers are inactive results; ? = inconclusive; . = not tested or not shown. An excerpt, so the mix of outcomes need not match the whole.

SMILES	YopH PTP inh	Arbovirus anti	Mtb growth	Mtb betalactam	RecA splice inh	others
CC(=O)c1c(C)oc2ccc(N(C(C)=O)S(=O)(=O)c3ccc(Br)cc3)cc12	.	.	.	5	0.4
COc1ccc(-c2nc(-n3c(C)c(C(C)=O)c(C(C)=O)c3C)sc2C)cc1	-26	10	-4%	8	1.7
O=C(c1ccc(Cl)cc1)N1CCn2c1nc1ccccc12	.	6	8%	-2	2.5
COc1cc(-c2noc(C3CCCN(C(=O)c4ccccc4)C3)n2)cc(OC)c1OC (configuration not stated)	.	.	.	-6	0.7
Cn1c(=N)n(CC(=O)c2ccc(F)cc2)c2ccccc21	.	.	.	67	-2.2
O=C(Nc1ccccc1C(=O)NCc1ccco1)Nc1cccc2ccccc12	.	5	12%	4	0.0
CC12CC3CC(C)(C1)CC(C(=O)NC(=S)N1CCOCC1)(C3)C2	-46	-1	-9%	17	-1.8
CCn1cnc2cc(NC(=O)c3ccco3)ccc21	-30	-5	-12%	0	0.6
COc1ccccc1NC(=O)c1ccccc1Nc1ccccc1	.	.	.	0	17
O=C(NCCCN1CCCC(O)C1)c1cc(COc2ccc(F)cc2F)on1 (configuration not stated)	.	.	.	0	1.0
COc1ccc(NC(=O)CSc2nnc(-c3ccccn3)n2-c2ccccc2)cc1OC	-15	7	-3%	-3	-2.0
COc1cccc(CN(C)CC(=O)Nc2sc3c(c2C#N)CCC3)c1OC	.	14	5%	-1	-1.0
COC(=O)C1C(=O)C(C(=O)/C=C/c2ccccc2)C(=O)CC1(C)C (configuration not stated)	.	16	-3%	-6	0.2
O=C(c1c(F)cccc1F)N1CCCC(c2nc(-c3cccs3)no2)C1 (configuration not stated)	.	.	.	-3	1.3
c1ccc(-c2nnn(C34CC5CC(CC(C5)C3)C4)n2)cc1	-5	1	-4%	18	4.0	Arbovirus anti repeat=-11
Cc1cc2c(=O)n(CC(=O)NCC(=O)Nc3ccc(C(C)C)cc3)cnc2s1	.	.	.	-2	-3.8
CN(C)C=Nc1nonc1N	3	1	2%	-2	0.4
CC(C)(C)C(=O)CN1C(=O)C2(OCCO2)c2ccccc21	-33	13	0%	-5	0.3
O=C(Cn1ncc2c1-c1ccccc1OC2)Nc1nc2ccccc2s1	-51	-13	7%	7	0.8	Arbovirus anti repeat=-15
Nc1cc(N)nc(SCC(=O)Nc2ccc3c(c2)OCO3)n1	.	.	.	-5	-4.0

Not a retest: entries from further up.
SMILES	YopH PTP inh	Arbovirus anti	Mtb growth	Mtb betalactam	RecA splice inh	others
CC(=O)c1c(C)oc2ccc(N(C(C)=O)S(=O)(=O)c3ccc(Br)cc3)cc12	.	.	.	5	0.4
COc1ccc(-c2nc(-n3c(C)c(C(C)=O)c(C(C)=O)c3C)sc2C)cc1	-26	10	-4%	8	1.7
O=C(c1ccc(Cl)cc1)N1CCn2c1nc1ccccc12	.	6	8%	-2	2.5

Returning to the listing; the three compounds before the break are reprinted first.
SMILES	YopH PTP inh	Arbovirus anti	Mtb growth	Mtb betalactam	RecA splice inh	others
CC(C)(C)C(=O)CN1C(=O)C2(OCCO2)c2ccccc21	-33	13	0%	-5	0.3
O=C(Cn1ncc2c1-c1ccccc1OC2)Nc1nc2ccccc2s1	-51	-13	7%	7	0.8	Arbovirus anti repeat=-15
Nc1cc(N)nc(SCC(=O)Nc2ccc3c(c2)OCO3)n1	.	.	.	-5	-4.0
CC(=O)N1c2ccccc2Nc2ccccc21	0	-5	-1%	0	-7.6
O=C1CCCN1CN(C(=O)c1ccccc1)c1ccc(F)cc1	-38	1	1%	5	-3.0
COc1cc2c(cc1OC)CN(C(=O)/C=C/c1ccc([N+](=O)[O-])cc1)CC2	.	.	.	4	1.2
COc1ccc(OC)c(-c2csc(CCn3nc(C)cc3C)n2)c1	.	19	37%	1	0.8
CCCCC1CCC(C(=O)NCC(c2ccco2)N2CCOCC2)CC1 (configuration not stated)	.	.	.	0	3.7
CCc1noc(C)c1C(=O)Nc1nnc(CC(C)C)s1	.	.	.	1	-1.4
O=C(CSc1ccccc1F)NCCCN1CCCC1=O	.	.	.	-13	-0.3
CS(=O)(=O)c1ccc2nc(NC(=O)c3cc(-c4ccccc4)nn3-c3ccccc3)sc2c1	-25	1	4%	-3	1.2
COc1cc(NC(=O)Cc2cccs2)ccc1-n1cnnn1	13	-6	-14%	-3	-2.7
O=C(Nc1nnc(SCc2ccccc2F)s1)C1=COCCO1	.	.	.	?	0.0
CCn1cc(CN2CCC(n3nccc3NC(=O)C(OC)c3ccccc3)CC2)cn1 (configuration not stated)	.	.	.	-17	2.8
c1cncc(C2Nc3cccc4cccc(c34)N2)c1	.	.	.	-2	2.3
COc1ccc(CCNS(=O)(=O)c2ccc3oc(C(=O)O)c(C)c3c2)cc1OC	-23	0	-20%	-6	-0.9
O=C(Nc1ccc(S(=O)(=O)Nc2ccccn2)cc1)c1ccc(Cl)cc1Cl	.	.	.	2	0.3
C1=C(c2ccccc2)Nc2nnnn2C1c1cccs1 (configuration not stated)	-13	-10	-3%	3	-1.3
Nc1nonc1-n1nnc(C(=O)N/N=C/c2ccccc2Cl)c1-c1ccccc1	.	.	.	-11	-9.1
Cc1ccc(C)c(OCC(=O)Nc2ccc(C(=O)O)cc2NC(=O)COc2cc(C)ccc2C)c1	.	.	.	-4	3.2
CC1(C)CC(=S)Nc2ccccc2S1	-10	6	-11%	2	1.0
CCOc1cc(/C=C(\C#N)C(=O)Nc2ccccn2)ccc1O	.	.	.	3	-0.9
Cc1cc(N2CCCCC2)nc(N)n1	-12	2	2%	-12	0.1
CCOc1cc(C2NC(=O)NC(O)(C(F)(F)F)C2C(=O)c2ccc(OC)cc2)ccc1O (configuration not stated)	-4	-3	-2%	2	-0.9
O=C(CP(=O)(O)CC(=O)c1ccccc1)c1ccccc1	.	-4	-11%	-6	-1.0
O=C(NC1CCCC1)C(c1ccncc1)N(C(=O)Cc1cccs1)c1ccc(F)cc1 (configuration not stated)	.	.	.	-9	-2.4
Cc1ccc(NC(=O)c2noc3c2CCCCC3)cc1	-47	1	-3%	-15	-0.2
O=C(NC1CCCCC1)C(c1ccncc1)N(C(=O)Cc1cccs1)c1ccccc1 (configuration not stated)	.	0	0%	9	0.6
O=C(C#Cc1ccccc1)Nc1cccc(F)c1	.	.	.	72	13
NNC(=O)c1ccc(-c2ccccc2F)cc1	.	.	4%	18	1.2
CC1CCN(CCc2nc3cc(NC(=O)NC4CCCCC4)ccc3n2C)CC1	22	-13	5%	3	2.5
CCOc1cc2[nH]c(=S)n(C3CCN(Cc4ccccc4)CC3)c(=O)c2cc1OCC	.	2	6%	-12	-0.6
O=C(c1ccc(-n2cnnn2)cc1)N1CCOCC1	-29	-1	-3%	-1	0.4
N#CC(Sc1ccccn1)c1ccc(Cl)cc1 (configuration not stated)	.	-6	1%	0	-3.2
Cc1ccc(-n2c3c(cc(C(=O)NCC(=O)c4ccccc4)c2=O)C(=O)CCC3)cc1	.	.	.	-16	0.8
CC(C)(C)c1ccccc1NC(=O)CN1C(=O)NC2(CCCC2)C1=O	.	.	.	-11	-1.1
O=C1CCCN1CN(C(=O)c1ccccc1)c1ccccc1	.	7	-1%	-2	0.8
CCCN1CCN(CCCNC(=O)CCNC(=O)Cn2ccc3ccccc3c2=O)CC1	-16	5	-4%	1	-1.2
CCC(CC)C(=O)N1CC(=O)Nc2ccc(F)cc2C1c1ccc(F)cc1 (configuration not stated)	.	.	.	-8	0.6
CCC12CN3CCN(CC(C3)/C1=N/NC(=O)c1ccncc1)C2	.	-2	?	97	-1.0
CCCCCCSC1=C(C#N)C(c2ccc(O)cc2)CC(=O)N1 (configuration not stated)	-31	1	2%	-2	5.8
COc1ccc(-n2ncc3c2CC(C)(C)CC3NC(=O)CCn2cncn2)cc1 (configuration not stated)	.	.	.	-2	-0.9
O=Cc1cccc2ccc3cccc(C(=O)O)c3c12	.	.	.	28	-7.1
NC(=O)CSc1nnc(COc2cccc3ccccc23)o1	.	.	.	6	0.2
OCC#CCSc1nnc(-c2ccncc2)o1	-28	8	-2%	43	-0.4
C=CCNC(=O)c1c(CSc2ccc(Cl)cc2)noc1C(=O)NCc1ccccc1	.	.	6%	1	11
C/C(=N\NC(N)=O)c1c(F)cccc1F	.	.	-5%	-5	-1.4
OCCN1CCN(CC(O)COCCOc2ccc(Br)cc2)CC1 (configuration not stated)	-43	-4	-2%	0	-0.4
Cc1cc(C)c(S(=O)(=O)c2cccc(C(F)(F)F)c2)c(=O)[nH]1	.	.	.	0	-1.1
Cc1cc(NC(=O)COC(=O)CNS(=O)(=O)c2ccc(C)c(C)c2)no1	.	1	-7%	-3	-1.0
CCOc1ccc(C(C)=O)cc1CSc1nnnn1-c1ccc(O)cc1	.	3	5%	-10	-2.5
NC(=O)c1cccnc1	-33	11	-1%	-4	-3.0
COCCCNC(=O)c1ccc([N+](=O)[O-])c(Cl)c1	-23	-6	-8%	-4	-1.7
COC(=O)c1cc(N=Cc2c(O)c3ccccc3oc2=O)cc(C(=O)OC)c1	.	.	.	-5	0.0
CCOc1ccc(NC(=O)CN(C)C(=O)c2cccnc2Sc2ccccc2Cl)cc1OCC	.	.	.	-6	1.9
O=C(C1CCCN(S(=O)(=O)Cc2ccccc2)C1)N1CCc2ccccc21 (configuration not stated)	-24	10	2%	-7	2.9
O=C(CSc1nnc(-c2ccc(O)cc2)n1-c1ccccc1)CC(=O)Nc1ccccc1	-17	1	1%	7	9.6
CN1C(=O)N(C)C(=O)C2(Cc3ccccc3N3CCOCC32)C1=O (configuration not stated)	-30	7	-3%	-13	-4.8
COc1ccccc1CNC(=O)CCCc1cn(C)c2ccccc12	.	.	.	-4	3.3
Cc1ccc(S(=O)(=O)NCC(=O)NCc2ccncc2)cc1	-32	-2	0%	-7	-0.8
O=C(NCCN1CCCCC1)Nc1ccc(F)cc1	.	.	.	-1	0.0
CCOC(=O)C1CCN(Cc2cn(C)nc2-c2ccc(Oc3ccccc3)cc2)CC1	.	8	6%	6	1.9
COc1ccc(-n2c(C)c(C(C)=O)c3cc(OC(C)=O)ccc32)cc1	.	.	.	14	-0.7
(listing goes on)
SMILES	YopH PTP inh	Arbovirus anti	Mtb growth	Mtb betalactam	RecA splice inh	others
COc1cccc(NS(=O)(=O)c2c(C)nc3sccn3c2=O)c1	.	.	.	-5	-3.8
CC1(c2ccccc2Cl)NC(=O)N(CC(=O)NCCC2=CCCCC2)C1=O (configuration not stated)	.	2	3%	4	2.9
COc1ccccc1C(=O)N1CCC(N2CCN(c3ccccc3)CC2)CC1	.	.	-9%	-7	-0.2
O=C1NC(CCc2ccccc2)C(=O)N1CCOc1ccccc1 (configuration not stated)	.	8	2%	-5	1.4
COc1ccc(OC(C)=O)c(C2c3cc(OC)c(OC)cc3CCN2C(C)=O)c1 (configuration not stated)	-40	0	-8%	0	0.6
CCN(CC(=O)Nc1cccc(C(C)=O)c1)S(=O)(=O)c1ccc(OC)cc1	-11	4	1%	1	-0.2
Cc1ccc(NC(=O)C2CCCN(c3ncccn3)C2)cc1F (configuration not stated)	-33	3	-5%	0	-0.8
O=C1CSC(c2ccccc2)N1Nc1nc(N2CCOCC2)nc(N2CCOCC2)n1 (configuration not stated)	.	-3	-6%	6	2.1
NC(=O)c1ccccc1NC(=O)/C=C/c1cccc(Cl)c1	-47	1	-1%	-2	1.4
O=C(N[C@@H](Cc1c[nH]c2ccccc12)C(=O)O)c1ccccc1Cl	.	8	3%	-8	-1.7
CCOC(=O)C1CCN(C2=NC(=O)/C(=C/c3ccccc3OC)S2)CC1	.	.	.	0	1.0
Cc1cc(Br)ccc1NC(=O)CN1C(=O)C2C3CC(c4ccccc4)C(C3)C2C1=O (configuration not stated)	-5	-20	.	94	9.9
O=C(Cc1ccccc1)NCCc1cnc[nH]1	.	.	.	1	2.6
COc1ccc(N(CC(=O)NCCC2=CCCCC2)S(C)(=O)=O)cc1	-22	12	4%	-2	-1.6
COc1ccc(CN2CCN(C3CCC3)CC2CCO)c(C)c1C (configuration not stated)	.	.	.	3	-1.6
CCOc1ncccc1C(=O)Nc1ccc(S(=O)(=O)NC2=NCCCCC2)cc1	.	2	1%	-2	-1.2
O=C1c2cccc3cccc(c23)C(=O)N1/N=C/c1c(O)n(-c2ccccc2)c(=O)[nH]c1=O	.	-2	2%	0	4.2
Cc1cccc(C(=O)NCCCNC(=O)c2ccc(C)nc2)c1	.	.	.	-4	0.3
CC(C)=C1SC(N2CCCCC2)=NC1=O	-5	6	-10%	1	2.4
O=c1c2ccccc2[nH]c(=S)n1-c1cccc(S(=O)(=O)N2CCCC2)c1	-38	2	8%	8	-3.4

Two entries picked at random from the list so far, as already listed:
SMILES	YopH PTP inh	Arbovirus anti	Mtb growth	Mtb betalactam	RecA splice inh	others
O=C1NC(CCc2ccccc2)C(=O)N1CCOc1ccccc1 (configuration not stated)	.	8	2%	-5	1.4
COc1cc(-c2noc(C3CCCN(C(=O)c4ccccc4)C3)n2)cc(OC)c1OC (configuration not stated)	.	.	.	-6	0.7
